Screening results as filed in PubChem BioAssay.
eIF4H inh = inhibitors of RNA binding by human eIF4H; eIF4H fluorescence polarization binding assay; inhibition, % at 35 µM; actives 0.94% (n = 290,000);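 active = 50% or more with normal probe brightness, or confirmed in later tests; about a fifth of its hits are not listed in these tables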;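 also: calls also rest on retests at 20 µM and on dose response follow-up; 0% = protein and probe with vehicle and 100% = probe without protein; strong numbers were not always called active; many hits fall short of the cut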
Rce1 inh = inhibitors of yeast Ras-converting enzyme | Q03530 | yeast membranes, quenched prenylated peptide cleavage fluorescence | calls only | actives 0.27% (n = 290,000) | AID 2563;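 active = fall in fluorescence gain of 50% or more versus controls, with final raw signal at or below 3038400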;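 also: plate controls were neutral control wells for no effect and wells lacking membranes for full effect; tested at 10 µM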
Env fusion inh = blocks HIV Env-driven cell-cell fusion; HeLa-JRFL Env/CEM21 cell fusion, luciferase; inhibition, % at 12.3 µM; actives 1.1% (n = 360,000); AID 651610;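 active = mean replicate inhibition score of at least 50 and every replicate individually at or above 50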;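 also: 0% = plate neutral controls and 100% = maraviroc near 300 nM; one replicate is shown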
MT1-MMP act inh = MT1-MMP (human) activation inhibition | P50281 | HT1080 RFP-PRO-GFP cells, GFP/RFP ratio fluorescence, overnight; percent of plate control window, DMSO zero | GFP/RFP ratio change, % at 20 µM | actives 0.061% (n = 360,000) | AID 651647;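 active = GFP/RFP ratio change of at least 30% with cell ATP level not reduced by more than half and red fluorescence within 50% of control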; also: strong numbers were not always called active
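system = RFP-PRO-GFP reporter HT1080 cells | dosing = 20 µM single dose, 1% DMSO | timing = overnight cell settling, then overnight compound exposure, 37 °C, 5% CO2 | read-out basis = GFP/RFP fluorescence ratio | controls = DMSO and RFP-L50D-GFP cell wells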
PABP FP inh = blocks human PABP binding to poly(A) RNA | inhibition, % at 35 µM | actives 1% (n = 290,000) | fluorescence polarization | AID 2014;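 active = 50% or more with normal probe brightness, or confirmed in later tests; about a fifth of its hits are not listed in these tables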;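 also: calls also rest on retests at 20 µM and on dose response follow-up; controls were probe without protein and protein plus probe with vehicle; some compounds called inactive have numbers as strong as hits; many hits fall short of the cut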
Target sequence (P11940 whole entry, looked up): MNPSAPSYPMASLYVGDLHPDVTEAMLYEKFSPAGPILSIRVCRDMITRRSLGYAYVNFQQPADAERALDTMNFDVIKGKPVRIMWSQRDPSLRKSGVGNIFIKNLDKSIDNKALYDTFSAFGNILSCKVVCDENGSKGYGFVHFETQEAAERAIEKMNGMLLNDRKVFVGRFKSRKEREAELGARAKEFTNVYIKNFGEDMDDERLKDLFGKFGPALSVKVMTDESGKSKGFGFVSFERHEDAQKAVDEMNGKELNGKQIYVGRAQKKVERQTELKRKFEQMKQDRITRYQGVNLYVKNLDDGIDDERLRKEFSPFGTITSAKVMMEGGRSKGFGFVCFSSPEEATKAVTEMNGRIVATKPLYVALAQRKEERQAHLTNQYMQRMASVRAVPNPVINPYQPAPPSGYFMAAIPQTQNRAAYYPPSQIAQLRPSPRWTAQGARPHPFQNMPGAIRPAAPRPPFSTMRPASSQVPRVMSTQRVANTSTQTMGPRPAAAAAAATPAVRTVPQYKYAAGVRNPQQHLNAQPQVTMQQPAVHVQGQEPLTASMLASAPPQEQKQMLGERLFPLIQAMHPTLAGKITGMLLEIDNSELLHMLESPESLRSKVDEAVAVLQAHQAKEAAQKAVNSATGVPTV
CSC inhib = blocks cancer stem cells. actives 1.1% (n = 300,000). inhibition, % at 7.5 µM. AID 2717. cancer stem cell-like cells viability, luminescence;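 active = mean at 75% or more and at least half the replicates too; tested in HMLE shEcad cells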;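 also: 0% = median of negative and 100% = median of positive control wells; the first replicate is given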
UUG fidelity = yeast start codon fidelity modulation; activity score, % at 18.7 µM; AID 602363; actives 0.13% (n = 350,000); S. cerevisiae UUG-firefly luciferase reporter, luminescence/redox ratio;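 active = replicate mean at a twofold rise or more, about +100% in these data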;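 also: firefly luciferase made from a UUG start codon reports start codon fidelity; reporter light over untreated wells divided by growth signal over untreated wells; some hits fall short of that in this replicate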
eIF4H inh retest = second read-out of eIF4H inh, no call of its own (marks repeat the call); inhibition, %; compound at 20 µM; confirmation average;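 mean of two retest wells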
PABP FP inh retest = also measured in PABP FP inh; calls as there; inhibition, %; compound at 20 µM; confirmation repeats;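 mean of two retest wells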
MT1-MMP act inh RFP = recorded beside MT1-MMP act inh, whose call it bears; RFP signal change, %; measured here: RFP expression control read;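 0 = vehicle wells; hits needed this value within 50% of zero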
An asterisk follows results filed as active; i = inactive; · = not tested or not shown.

Preview:
SMILES	eIF4H inh	Rce1 inh	Env fusion inh	MT1-MMP act inh	MT1-MMP act inh RFP	PABP FP inh	CSC inhib	UUG fidelity	others
O=C(Cc1ccccc1)NC(NNc1ccccc1)(C(F)(F)F)C(F)(F)F	-7.7	i	-64.9	-7.7	-4.6	-0.4	-4.0	480.8*
CC(=O)c1ccc(S(=O)(=O)NCCC(=O)OC(C)C(=O)Nc2ccc(F)cc2)cc1 (stereo not given)	·	i	-10.3	3.2	1.0	·	-10.1	·
O=C(c1cccc([N+](=O)[O-])c1)N1CCN(c2n[nH]c(=O)[nH]c2=O)CC1	8.0	i	-2.3	2.3	5.5	4.6	·	0.0
Cc1cccc(C(=O)Nc2ccc3c(c2)nc(C)n3C)c1	-0.8	i	-52.0	4.1	1.7	-0.2	-3.4	-30.6

The list itself (from the top)
SMILES	eIF4H inh	Rce1 inh	Env fusion inh	MT1-MMP act inh	MT1-MMP act inh RFP	PABP FP inh	CSC inhib	UUG fidelity	others
O=C(Cc1ccccc1)NC(NNc1ccccc1)(C(F)(F)F)C(F)(F)F	-7.7	i	-64.9	-7.7	-4.6	-0.4	-4.0	480.8*
CC(=O)c1ccc(S(=O)(=O)NCCC(=O)OC(C)C(=O)Nc2ccc(F)cc2)cc1 (stereo not given)	·	i	-10.3	3.2	1.0	·	-10.1	·
O=C(c1cccc([N+](=O)[O-])c1)N1CCN(c2n[nH]c(=O)[nH]c2=O)CC1	8.0	i	-2.3	2.3	5.5	4.6	·	0.0
Cc1cccc(C(=O)Nc2ccc3c(c2)nc(C)n3C)c1	-0.8	i	-52.0	4.1	1.7	-0.2	-3.4	-30.6
CC(C)(C)c1nnc(NS(=O)(=O)c2ccc([N+](=O)[O-])cc2)s1	-11.8	i	-9.6	0.9	-4.7	-2.8	24.7	-10.0
COc1cccc(CNC(=S)Nc2cc(C)ccc2C)c1	-4.3	i	-1.4	-3.9	-2.1	-6.2	-15.2	-33.6
CC(=O)Nc1cccc(C(=O)N2CCN(Cc3ccccc3)CC2)c1	-6.0	i	10.6	·	·	-7.6	-1.2	-4.7
O=C(CSc1nnc(-c2ccc([N+](=O)[O-])cc2)o1)Nc1ccccn1	2.4	i	-18.0	3.0	-0.2	-0.6	11.9	·
O=C(N/C(=C/c1ccco1)C(=O)N1CCOCC1)c1ccc([N+](=O)[O-])cc1	1.0	i	-4.2	-2.9	3.1	6.8	·	-12.4
Cn1c(CNC(=O)c2ccc3c(c2)OCO3)nnc1SCC(=O)Nc1ccccc1Cl	9.0	·	-2.1	-4.4	-3.9	3.9	-14.0	-3.7
CCOc1ccc(NS(=O)(=O)c2ccc(C(=O)NC3CCC(O)CC3)cc2)cc1 (stereo not given)	·	i	5.8	-0.2	-1.6	·	15.6	5.5
CC(C)OC(=O)CCC(=O)Nc1nc2ccccc2s1	-2.1	i	10.6	10.0	1.6	31.3	-5.6	-7.9
COc1ccc(N2CC(C(=O)Nc3ccc(N4CCOCC4)cc3)CC2=O)cc1 (stereo not given)	-0.2	i	0.0	-2.8	0.8	-3.4	-4.5	-11.2
COc1cc(OC)c(C(=O)Nc2ncn[nH]2)cc1OC	·	i	·	5.4	-4.6	·	8.5	-9.7
COc1cccc(-n2nnc3c(=O)n(CC(=O)N4CCCCC4)cnc32)c1	-5.5	i	-17.4	4.9	2.2	-9.4	-2.2	-9.3
Cc1sc(NC(=O)C2C3CCC(C3)C2C(=O)O)c(C(N)=O)c1-c1ccc(C(C)(C)C)cc1 (stereo not given)	-10.8	i	18.3	6.2	-1.4	-11.3	3.9	-11.0
CCN1CCCC(NC(=O)c2scc3c2CCCC3)C1 (stereo not given)	-0.5	i	6.0	3.5	8.2	-2.6	4.6	-15.7
CCC(=O)Nc1nc(C)nc(C)c1C(C)=O	-4.1	i	·	8.5	5.8	-11.8	-8.8	-22.9
CC(=O)c1ccc(N2CCN(S(=O)(=O)c3ccc4c(c3)NC(=O)CO4)CC2)cc1	-8.1	i	-6.0	0.8	-4.0	-1.9	1.9	·
C#CCNC(=O)C1=C[C@@H](C2CCCCC2)[C@H](CCCO)[C@@H](OCC)O1	-5.3	i	10.0	0.0	-4.5	-4.1	-6.8	-7.1
Cc1ccccc1C(=O)N/C(=C/c1ccc(-c2cccnc2Cl)o1)C(=O)NCCCN1CCN(C)CC1	-9.7	i	-34.4	7.0	4.1	-11.1	7.7	-9.1
CC1(C)CC(=O)C(C2c3ccccc3Oc3ccccc32)C(=O)C1	-5.9	·	-7.7	2.4	3.6	4.5	1.1	·
COc1ccc(CNC(=O)c2c(O)c3cc(OC)c(OC)cc3[nH]c2=O)cc1OC	4.8	i	-15.9	0.7	-0.4	-6.4	·	-18.7
O=C(c1ccc2c(=O)n(CC3CCCO3)c(=S)[nH]c2c1)N1CCN(c2ccccc2)CC1 (stereo not given)	-6.8	i	-43.8	-2.7	5.7	4.5	26.1	-10.2
CCC1CCCCN1CCN1C(=O)C2C(C(=O)Nc3ccc(OC)cc3)C3C=CC2(O3)C1C(=O)NC1CCCCC1 (stereo not given)	5.8	·	7.1	0.4	1.3	-5.9	-2.2	-2.6
Cc1ccc(-c2nnc(-c3ccncc3)n2-c2ccc(C)cc2)cc1	0.7	i	-5.5	2.4	1.8	-7.1	-2.4	-5.9
O=C(O)CCC(=O)N1N=C(c2ccccc2)CC1c1ccc2c(c1)OCO2 (stereo not given)	70.5	i	13.4	-1.1	-3.1	-5.4	-8.2	1.0	eIF4H inh retest=37.2;PABP FP inh retest=4.2
O=C(c1sc2ccccc2c1Cl)N1CCN(c2ccc(F)cc2)CC1	-3.5	i	·	4.6	-4.6	-5.5	·	-20.1
COc1ccc(C(=O)Nc2ccc3ccccc3c2)c(OC)c1	2.1	i	-288.2	-1.5	1.3	-5.9	34.6	-42.1
COc1ccc(C(=O)NC(C)c2nnc(SCC(=O)Nc3nc4ccccc4s3)n2C)cc1 (stereo not given)	-4.8	i	·	0.0	-2.6	-0.1	·	-12.6
CCOC(=O)CNC(=O)CSc1nnc(Cn2cnc3ccccc32)n1C	-5.9	·	i	2.9	5.4	12.9	-7.9	-17.9
CCCc1nc2oc3ccccc3c(=O)c2c(=O)n1-c1ccccc1	0.5	i	-30.9	0.0	2.9	0.1	-6.9	-8.4
CC(C)C(c1nnnn1Cc1ccc(F)cc1)N1CCSCC1 (stereo not given)	-6.4	i	-18.9	9.6	1.7	-9.9	-4.2	-8.4
CCCSc1nc(-c2ccccc2)cc(C(F)(F)F)c1C#N	-2.1	i	·	1.6	-2.3	-4.1	27.1	·
CCCN(CC1CC1)C(=S)NC(=O)c1ccc(S(=O)(=O)N2CCOCC2)cc1	15.8	i	-12.8	4.3	4.7	-0.3	2.2	-16.9
COc1ccc(NC(=O)CSc2nc(N)c(C#N)cc2C#N)cc1	28.5	i	·	-9.4	-1.7	27.2	-9.7	·
CCNC(=S)/N=C(/Nc1ccccc1)Nc1nc(C)cc(C)n1	31.0	i	-4.4	-4.3	-2.9	18.7	-5.9	-27.7
CCOP(=O)(OCC)C(NC(=O)Nc1ccccc1)c1ccccc1 (stereo not given)	5.6	i	·	0.2	2.6	0.7	·	-0.1
Cc1cccc(NC(=O)CCN2CCN(C/C=C/c3ccccc3)CC2)c1	-4.0	i	·	1.2	0.7	2.4	18.7	-11.8
COc1ccc(NC(=O)c2ccco2)cc1S(=O)(=O)N1CCCCC1	-11.2	i	0.9	-1.3	-0.5	-4.4	-15.6	-8.7
CCn1c(SCC(=O)Nc2sccc2C(N)=O)nnc1C1CC1	·	·	-13.1	-2.2	2.8	·	·	-13.5
CCOC(=O)CSc1nnc(-c2ccc(Cl)cc2Cl)o1	4.4	i	-26.9	4.2	0.1	-3.5	13.3	-32.3
CCOc1nc(-c2ccccc2)ncc1Oc1ccccc1	·	i	3.7	-1.1	0.3	·	12.4	-13.7
CC(=O)c1c(C)[nH]c(C(=O)CSc2ncnc3sc(-c4ccccc4)cc23)c1C	-7.1	i	53.3	-4.8	-23.8	9.4	-16.7	·
O=C(NCc1cccs1)c1cnc2sccn2c1=O	1.4	i	6.4	3.5	2.5	0.7	-1.1	-24.0
CCOc1ccc(NC(=O)CN(c2ccc([N+](=O)[O-])cc2)S(=O)(=O)c2ccccc2)cc1	3.4	i	-66.4	-1.0	-12.6	-1.3	·	·
COc1ccc(CCNC(=O)CSc2c[nH]c3ccccc23)cc1OC	8.6	i	-7.3	-0.1	-1.2	13.0	-5.0	7.8
CC(Oc1cccc(Br)c1)C(=O)NNC(=O)CCNC(=O)c1ccccc1Cl (stereo not given)	·	·	·	0.1	4.3	·	-27.3	-21.4
Cc1cccc(N(Cc2cc3ccccc3[nH]c2=O)C(=O)c2cccs2)c1	-10.0	i	5.1	-6.5	-8.3	-1.8	10.0	·
CCCC(C)(C)NC(=O)CCCCC(=O)NC(C)(C)CCC	0.3	i	-65.5	0.4	1.1	-5.7	-10.0	·
Cn1c(=O)c2cc(NC(=O)CCc3ccc(O)cc3)ccc2n1Cc1cccc(C(F)(F)F)c1	·	·	46.6	-3.6	-14.7	·	·	-7.3
CC(=O)c1cccc(-c2ccnc3c2CC(C(=O)NCc2ccc(N4CCN(C)CC4)cc2)O3)c1 (stereo not given)	·	·	-30.2	0.3	-1.3	·	·	-40.4
Cc1ccc(NC(=S)N2CCN(c3ccccc3F)CC2)c(C)c1	0.7	i	-1.0	0.1	1.1	1.0	-13.1	-21.2
O=C(NC(=S)Nc1ccc(Cc2ccncc2)cc1)c1ccccc1	-2.9	i	-45.8	-1.1	-4.8	-3.9	28.2	-21.9
CC(C)OC(=O)c1cc(NC(=S)Nc2ccc([N+](=O)[O-])cc2)cc(C(=O)OC(C)C)c1	-1.3	i	·	-2.4	0.7	-2.7	55.7	-6.8
COc1ccccc1N(CC(=O)N1CCN(Cc2ccccc2)CC1)S(=O)(=O)c1ccccc1	·	·	-7.0	1.2	2.3	·	·	-5.0
CCCS(=O)(=O)N1CCN(Cc2ccc3c(c2)c2ccccc2n3CC)CC1	-8.5	i	·	-1.3	-4.1	3.8	-6.5	-6.0
C=CCN1c2ccccc2[C@]23C[C@@H](C(=O)OC)N=C2NC(C(=O)OC)=C(C(=O)OC)[C@H]13	-5.6	i	6.3	-7.3	-1.2	8.6	-5.5	-11.4
Cc1ccc2c(CC(=O)NC3CCS(=O)(=O)C3)coc2c1C (stereo not given)	0.6	i	1.7	-1.7	2.0	5.1	-7.7	-5.7
CCc1nc2c(C#N)c(-c3ccc(Cl)cc3)ccn2n1	-3.0	i	-61.5	3.4	-0.6	-4.8	0.2	-16.4
The list continues.
SMILES	eIF4H inh	Rce1 inh	Env fusion inh	MT1-MMP act inh	MT1-MMP act inh RFP	PABP FP inh	CSC inhib	UUG fidelity	others
COc1cccc(C(=O)N2CCn3c2nc2ccccc23)c1	1.0	i	7.0	3.3	4.3	5.5	-3.0	-26.2
Cc1nnc(NC(=O)CC(C)c2ccccc2)s1 (stereo not given)	14.2	i	-3.2	-8.5	-0.2	2.3	-20.8	-12.2
CC(NC(=O)c1ccc(N2CCCC2=O)cc1)c1ccccc1 (stereo not given)	4.1	i	·	5.6	0.0	8.1	19.5	-15.6
CC(C)c1ccc(NC(=O)COc2nnc(-c3cccs3)c(-c3cccs3)n2)cc1	-16.5	i	-40.3	6.5	3.9	0.1	-7.2	-6.0
Cc1ccc(S(=O)(=O)N(Cc2ccc(C(F)(F)F)cc2)C(=O)N2CCN(C)CC2)cc1	·	i	16.3	7.4	2.1	·	-12.0	-14.8
